# KCNQ2 enhance – potentiators of rat KCNQ2 potassium channel | O88943 | CHO-K1 KCNQ2, FluxOR thallium flux fluorescence; stronger effect = higher value | B-score at 10 µM | actives 0.54% (n = 310,000);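 active = fluorescence ratio B-score at least 3 SD of library B-scores, with initial fluorescence B-score within 3 SD, cut at about 5.3 in these data; same plate scores as AID 2156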;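 also: B-score of peak minus minimum over baseline fluorescence ratio after K+ and Tl+ stimulus; positive B-score means potentiation of KCNQ2 with more thallium influx and brighter signal; only the inactives scoring about 0 or higher are listed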
# Target sequence (O88943 whole entry, looked up): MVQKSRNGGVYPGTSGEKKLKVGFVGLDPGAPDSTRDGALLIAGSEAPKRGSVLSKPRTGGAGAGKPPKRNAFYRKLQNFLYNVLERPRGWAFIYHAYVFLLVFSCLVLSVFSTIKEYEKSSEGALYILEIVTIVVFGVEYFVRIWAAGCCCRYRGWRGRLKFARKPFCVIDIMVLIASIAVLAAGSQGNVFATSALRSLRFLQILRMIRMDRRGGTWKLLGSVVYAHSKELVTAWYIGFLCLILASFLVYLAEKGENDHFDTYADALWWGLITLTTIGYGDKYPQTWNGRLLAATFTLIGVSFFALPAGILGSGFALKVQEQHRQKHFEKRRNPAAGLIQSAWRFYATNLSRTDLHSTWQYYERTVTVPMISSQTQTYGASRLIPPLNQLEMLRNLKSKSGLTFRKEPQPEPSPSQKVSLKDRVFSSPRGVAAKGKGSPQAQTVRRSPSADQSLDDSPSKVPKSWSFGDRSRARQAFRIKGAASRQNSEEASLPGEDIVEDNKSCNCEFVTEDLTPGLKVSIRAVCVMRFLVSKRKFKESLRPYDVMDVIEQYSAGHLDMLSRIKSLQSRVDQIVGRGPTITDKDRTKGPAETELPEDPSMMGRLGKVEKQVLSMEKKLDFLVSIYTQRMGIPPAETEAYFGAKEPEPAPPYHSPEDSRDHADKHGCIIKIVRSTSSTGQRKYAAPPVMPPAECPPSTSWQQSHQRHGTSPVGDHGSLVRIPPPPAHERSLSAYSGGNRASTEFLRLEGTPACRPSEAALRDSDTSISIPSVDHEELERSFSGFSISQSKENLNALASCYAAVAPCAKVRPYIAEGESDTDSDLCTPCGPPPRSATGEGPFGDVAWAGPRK
# KCNQ2 enhance baseline – recorded beside KCNQ2 enhance, whose call it bears; B-score; compound at 10 µM; measured here: initial fluorescence intensity artifact check;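 brightness before thallium and not channel activity; 0 = typical well and far values either way flag optical interference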
# * hit, by the source's call; nt = not tested or not shown.
SMILES,KCNQ2 enhance,KCNQ2 enhance baseline
CCOC(=O)C1C(c2cccc(F)c2)NC(=S)NC1(O)C(F)(F)F (centres undefined),1.7,-2.3
CCCc1ccc2oc(C(=O)NCCCN3CCOCC3)c(C)c2c1,1.3,1.2
Cc1cc2n(c(=O)c1C#N)CCCN2c1ccccc1,0.26,1.3
Cc1ccc(-c2nnc(SCC(=O)O)n2N)cc1,0.03,1.7
Cc1ccccc1C(=O)Nc1cccc(C(=O)N/N=C/c2ccccn2)c1,0.48,2.2
CCOC(=O)Cn1cc(-c2ccccc2)nn1,1.4,-0.34
CC1CC(=O)N(CC(=O)Nc2ccc(F)cc2F)c2ccccc2S1(=O)=O (centres undefined),0.34,-0.89
COc1ccccc1NC(=O)Cn1c(O)c(N=NC(=O)c2ccccc2O)c2ccccc21,0.78,2.4
Clc1cccc(Nc2nc(N3CCOCC3)nc(N3CCOCC3)n2)c1,1.4,-1.1
COc1ccc(OC)c(C2C(C(=O)c3cccs3)=C(O)C(=O)N2CCN2CCOCC2)c1 (centres undefined),0.04,-0.13
COc1ccc2[nH]cc(CCNS(=O)(=O)c3ccc(F)cc3)c2c1,0.14,1.6
CC(OC(=O)c1ccccc1OCc1ccc(Cl)cc1)C(N)=O (centres undefined),0.21,0.11
COc1ccc(C(=O)Nc2nc(N)n(-c3ccccc3)n2)cc1,1.6,-1.2
O=C(Cc1ccccn1)c1ccccc1,0.78,-1
CCOC(=O)C1CCN(c2ncnc3c2[nH]c2cccc(OC)c23)CC1,1.1,0.06
Cc1oc2c(c1C(=O)NCc1cccnc1)C(=O)c1ccccc1C2=O,2.8,-1.8
CCC(C)Sc1cc(C)c(C#N)c2nc3ccccc3n12 (centres undefined),0.09,1.4
CCc1ccc(NC(=S)N(CCCN2CCOCC2)Cc2ccco2)cc1,6.6*,-1.8*
COc1ccc(NS(=O)(=O)c2cc(OCC(N)=O)c(C)cc2Cl)cc1,0.06,1.1
S=c1[nH]nc(COc2ccc(Cl)cc2)o1,0.38,0.66
O=C(Cc1ccc(S(=O)(=O)N2CCCC2)s1)Nc1nc2c(s1)CCCC2,0.06,-0.49
COc1cc(NC(=O)CCC(=O)OCCCC(F)(F)C(F)(F)F)nc(OC)n1,0.7,0.09
O=S(=O)(c1ccccc1F)N1CCC(c2nc3ccccc3[nH]2)CC1,0.4,1.3
Cc1cc(C2CC(=O)Nc3ccccc3S2)c(C)s1 (centres undefined),0.02,-0.6
CCN1C(=O)C(O)(C2COC(C)(C)CC2=O)c2ccccc21 (centres undefined),1.1,0.47
NC(N)=N/N=C/c1c(Cl)cccc1Cl,1.4,nt
COc1ccc(NC(=O)CSc2nnc(-c3ccoc3C)n2CC2CCCO2)cc1 (centres undefined),0.13,-2
O=C(COc1coc(CN2CCN(c3ccccc3)CC2)cc1=O)Nc1ccccc1,0.51,-2.2
CC(=O)Nc1ccc(NC(=O)CC2SC(=O)N(CC(=O)c3ccccc3)C2=O)cc1 (centres undefined),1.9,-1.6
COC(=O)N(NC(=O)C(O)(C(C)C)C(C)C)c1ccccc1,0.36,-0.57
CC1CCN(C(=O)c2cc(Cl)nc3ccccc23)CC1,0.45,-0.01
CCCCn1c(=O)[nH]c(=O)c2c1nc(-c1ccc(OCCC)c(OCC)c1)n2CCOC,1.3,0.1
CCCCC(=O)Nc1ccc(NC(=O)c2ccc([N+](=O)[O-])cc2)cc1OC,0.62,2.2
C/C(=N\Nc1ccc2nncn2n1)c1cccs1,0.93,-0.36
CC(=O)Oc1ccc(/C=N/NC(=S)Nc2ccccc2)cc1,0.19,1.4
O=[N+]([O-])c1cccc(-c2nnc3c4ccccc4c4ccccc4n23)c1,0.46,-0.02
CCNC(=O)CCCOc1ccc(Cl)cc1Cl,0.33,0.96
Cc1[nH]c2ccccc2c1C(=O)CN1CC(C)CC(C)C1 (centres undefined),0.05,0.17
O=C(c1ccc2c3c(cccc13)C(=O)N(O)C2=O)N1CCCCC1,0.16,0.87
C/C(=N\NC(=O)c1ccccc1C)c1cccnc1,1.2,-0.59

# Profiles, looked up by structure:
# `CC(=O)Nc1ccc(NC(=O)CC2SC(=O)N(CC(=O)c3ccccc3)C2=O)cc1` (centres undefined) as listed: KCNQ2 enhance = 1.9; KCNQ2 enhance baseline = -1.6
# `COc1ccc(OC)c(C2C(C(=O)c3cccs3)=C(O)C(=O)N2CCN2CCOCC2)c1` (centres undefined) as listed: KCNQ2 enhance = 0.04; KCNQ2 enhance baseline = -0.13

# The results go on:
SMILES,KCNQ2 enhance,KCNQ2 enhance baseline
CCC(C)(C(=O)NC1CCCC1)N(C(=O)c1cnccn1)c1c(C)n(C)n(-c2ccccc2)c1=O (centres undefined),0.27,1.5
COc1cc(C(=O)NCc2ccc(C)cc2)ccc1OCc1c(C)noc1C,0.61,0
COc1ccc(OCC(O)CNC(=O)Nc2cccc3ccccc23)cc1 (centres undefined),1.4,0.05
C/C(=N\NC(=O)c1cccc(N2CCCC2=O)c1)c1ccc(N)cc1,0.69,-0.48
C=CCNc1nc(N)c([N+](=O)[O-])c(N2CCCCCC2)n1,0.9,0.04
Cc1ccc(C(=O)c2c[nH]c(C(=O)NCc3cccnc3)c2)cc1,0.03,0.75
Cc1cc(C(=O)N2CCc3c([nH]c4ccccc34)C2c2c(F)cccc2Cl)no1 (centres undefined),1.8,0.48
COc1ccccc1-c1noc(CCC(=O)NC2CCCC2)n1,2.3,0.87
COc1ccc(NC(=O)Cn2cnc3c(nnn3-c3ccc(C)cc3)c2=O)cc1,0.16,-2
COCC(=O)Nc1nc(-c2ccc(C)cc2)c(C)s1,0.49,-0.65
CC(C)(C)c1ccc(C(=O)NCCC(=O)NCc2cccs2)cc1,0.2,0.07
O=C(CN1C(=O)c2ccccc2C1=O)Nc1ccc(S(=O)(=O)N2CCOCC2)cc1,0.12,0.02
COC(C/C=C\C(=O)COCc1ccccc1)OC,2.3,0.32
COc1ccc(OC)c(-n2c(-c3cccc(O)c3)n[nH]c2=S)c1,0.78,-1.3
CCCOc1ccc(CSC(=N)N)cc1C(=O)OC,2.1,-0.63
COc1ccc(NC(=O)c2nc[nH]c2C(=O)N2CCC(C)CC2)cc1,0.17,0.06
CCC(C)N(C(=O)COc1ccccc1C#N)C1CCS(=O)(=O)C1 (centres undefined),0.05,0.51
COc1ccc(CCNCC(O)COc2cccc(C(C)=O)c2)cc1OC (centres undefined),0.95,-1.6
CCOc1ccc2nc(SCC(=O)N(C)C)[nH]c2c1,1.5,0.03
COc1ccc2nc(N=Nc3ccc(O)c4ccccc34)sc2c1,9.3*,0.21*

# Shown field by field: four of the compounds above
> CC(C)(C)c1ccc(C(=O)NCCC(=O)NCc2cccs2)cc1
  KCNQ2 enhance: 0.2; KCNQ2 enhance baseline: 0.07
> O=C(CN1C(=O)c2ccccc2C1=O)Nc1ccc(S(=O)(=O)N2CCOCC2)cc1
  KCNQ2 enhance: 0.12; KCNQ2 enhance baseline: 0.02
> COC(C/C=C\C(=O)COCc1ccccc1)OC
  KCNQ2 enhance: 2.3; KCNQ2 enhance baseline: 0.32
> COc1ccc(OC)c(-n2c(-c3cccc(O)c3)n[nH]c2=S)c1
  KCNQ2 enhance: 0.78; KCNQ2 enhance baseline: -1.3

# Other records.
SMILES,KCNQ2 enhance,KCNQ2 enhance baseline
COc1cc(NC(=O)CSC(=S)N2CCCC2)c(OC)cc1Cl,0.81,-2.8
COCCNC(=O)/C(=C/c1ccccc1Cl)c1ccccc1,1,-0.35
CC(C)(C)Oc1ncc(Br)c(OC(C)(C)C)n1,1.2,-3.7
CCCCC(=O)NC(=S)Nc1cc([N+](=O)[O-])ccc1OC,0.35,3
CC(C)Cc1nc2oc3c(N4CCN(C)CC4)ncnc3c2c2c1CCCC2,0.42,-1.1
CC(=O)NCCn1c(SCC(=O)OCc2ccccc2)nc2ccccc2c1=O,0.88,2.1
Cc1cccc(NC(=O)CSc2cc(C(=O)c3nccn3C)c3ccccc3n2)c1,2.4,0.7
O=C(COC(=O)COc1ccc(Cl)cc1)NCCNC(=O)COC(=O)COc1ccc(Cl)cc1,0.94,0.56
CC(=O)/C=C/c1ccccc1O,0.27,-0.8
CC(C)(C)NC(=O)COC(=O)/C=C/c1ccc(F)cc1,0.46,0.39
COc1cc(OC)cc(C(=O)N2CCC(N3CCN(c4ccccc4OC)CC3)CC2)c1,0.02,-0.44
CCC(C)(NC(=O)c1cccc(N2C(=O)CSC2c2ccccc2)c1)C(=O)Nc1ccccc1C (centres undefined),0.32,0.49
COc1ccc2c(c1)N(C(=O)CSc1n[nH]c(C)n1)C(C)(C)C=C2C,1.4,0.08
CCOc1cc(/C=N/NC(=O)Cn2nc([N+](=O)[O-])cc2C)ccc1OCc1ccc(F)cc1,0.77,0.67
CCc1cccc(NC(=O)Nc2cccs2)c1,0.29,-0.4
COc1ccccc1NC(=O)C(C)NS(=O)(=O)c1ccccc1 (centres undefined),2.1,0.79
COC(C[C@H](O)C[C@H](O)COCc1ccccc1)OC,0.69,1.1
COc1cc(NC(=O)CSc2c3c(nc4ccccc24)CCC3)cc(OC)c1OC,0.77,-2.5
C=CCNC(=O)C1CC(c2cccc(OC)c2)=NO1 (centres undefined),0.01,1.1
COc1ccc(N2CSC3=C(C#N)C(c4ccc(OC)c(OC)c4)CC(=O)N3C2)c(OC)c1 (centres undefined),0.55,-0.35
C=CCN1C=C2C(=O)C(C)(OC(=O)C3CCCC3)C(=O)C=C2C=C1c1ccsc1 (centres undefined),0.17,1.9
CCN1CCCC1CNC(=O)C(=O)NC(C)c1ccccc1 (centres undefined),0.68,1.6
Cn1ccsc1=NC(=O)c1cc(S(=O)(=O)N2CCOCC2)ccc1F,0.71,0.94
N#C/C(=C/c1ccc(Br)s1)C(=O)NCCc1c[nH]c2ccccc12,1.8,0.01
COC(=O)c1cc(C(=O)N2CCN(c3cccc(Cl)c3)CC2)cc([N+](=O)[O-])c1,0.01,0.98
COCCN1Cc2cccc(C(=O)Nc3c(C)cc(C)cc3C)c2C1=O,0.27,-2.8
NC(=O)c1ccc(N2CCN(c3ncc(C(F)(F)F)cc3Cl)CC2)cc1,0.08,1.2
CN(C)S(=O)(=O)c1ccc2c(c1)C(CC(=O)O)NC2=O (centres undefined),0.17,0
Cc1ccc(CCC(=O)Nc2ccc([N+](=O)[O-])cc2)o1,0.02,-0.4
CC(C)OCCCNC(=O)c1ccc(CN2CCc3ccccc3C2)cc1,0.41,-0.1
C[C@H](CO)NC(=O)[C@@H]1C[C@H]1[C@@H](NP(=O)(c1ccccc1)c1ccccc1)c1ccccc1,0.33,0.59
NC(=O)c1ccc2c(=O)c(O)c(-c3cc(Cl)c(N)c(Cl)c3)[nH]c2c1,0.71,2
Cc1noc(C)c1S(=O)(=O)N1CCCC(C(=O)NCCC2=CCCCC2)C1 (centres undefined),0.53,0.1
CCc1cccc(NC(=O)CSc2nc3c(c(=O)[nH]2)CCCC3)c1,0.51,-0.58
O=c1/c(=C/c2cccc3ccccc23)sc2ncnn12,0.35,1.1
O=c1cc(CCl)[nH]c2nc3ccccc3n12,1,-0.71
CCN1CCN(c2nnc(-c3ccc(C)cc3)c3ccccc23)CC1,0.61,-0.5
COc1ccc(CC(=O)Nc2nc(-c3ccccc3)c(C(C)=O)s2)cc1OC,0.07,1.5
CCCCc1cc(=O)oc2cc(OCC(=O)N3CCOCC3)ccc12,0.9,-0.17
CN(C)C(CNC(=O)c1ccc(S(=O)(=O)Nc2ccccc2)cc1)c1ccco1 (centres undefined),0.65,1.3
CN(C(=O)C(Cl)Cl)c1ccc(OC(=O)c2ccco2)cc1,2.2,0.37
Cc1ccc(/C=C2/C(=N)N3N=C(CC(=O)N4CCCC4)SC3=NC2=O)o1,0.48,0.07
CC(C)COC(=O)n1c(=O)oc2ccc(S(=O)(=O)N3CCCCC3)cc21,0.54,0.15
CC(C)CN1CCN(Cc2cn(C)c3ccccc23)CC1CCO (centres undefined),0.6,0.39
O=C(O)CSc1nc2ccccc2n1Cc1ccccc1,0.85,-0.35
CC(C)(C)OC(=O)N/N=C\c1ccc[nH]1,0.7,1.9
Cc1nn(-c2ccccc2)c(N)c1N=O,0.03,-1.2
Cc1cccc(OCC(=O)Nc2ccc(NC(=O)c3ccco3)c(C)c2)c1,0.28,1.6
CCOC(=O)C1=C(C)N=C2SC(C)C(=O)N2C1c1ccc(OC(C)=O)c(OC)c1 (centres undefined),0.01,-0.66
CCCN1CCC(=O)N(CCSc2ccc(C)cc2)CC1,0.58,-1.3
CCOC(=O)C1CCCN(S(=O)(=O)c2cc(C(=O)OC)n(C)c2)C1 (centres undefined),2.5,2.1
COc1cccc2cc3c(=O)n(-c4ccccc4)nc-3oc12,0.39,-2
CCCC(O)(CCN(C)C)c1ccc(OC)cc1 (centres undefined),1.4,1.2
O=C(N/N=C\c1ccc(Cl)cc1)c1sccc1-n1cccc1,0.41,1.8
O=C(O)COCc1nc2ccccc2[nH]1,0.22,0.09
CN(C)S(=O)(=O)c1ccc(Cl)c(NC(=O)COC(=O)CN2C(=O)C3CCCCC3C2=O)c1 (centres undefined),1.5,-0.02
COc1ccc(CNC(=O)COC(=O)CCOc2ccc(C)cc2)cc1OC,1.3,0.39
COc1ccc(NC(=O)CN(C)C(=O)c2sc3ccccc3c2Cl)cc1,0.02,0.08
O=C(CCN1C(=O)/C(=C/C=C/c2ccccc2)SC1=S)Nc1ccccn1,2.5,-0.87

# 5 records picked at random from the list so far, as already listed:
SMILES,KCNQ2 enhance,KCNQ2 enhance baseline
Cc1ccc(/C=C2/C(=N)N3N=C(CC(=O)N4CCCC4)SC3=NC2=O)o1,0.48,0.07
CCCN1CCC(=O)N(CCSc2ccc(C)cc2)CC1,0.58,-1.3
O=C(CCN1C(=O)/C(=C/C=C/c2ccccc2)SC1=S)Nc1ccccn1,2.5,-0.87
CC(C)(C)OC(=O)N/N=C\c1ccc[nH]1,0.7,1.9
O=C(O)CSc1nc2ccccc2n1Cc1ccccc1,0.85,-0.35

# Assay outcomes deposited in PubChem by Johns Hopkins Ion Channel Center.

# Some of the compounds tested; count on the stated rates, not on these rows.
